RanGTP-Impb inh: inhibitors of RanGTP-importin-beta interaction, primary screen, biochemical, FRET, CFP-Ran, YFP-importin-beta, homogeneous; Ran GTPase (GTP-bound) - importin-beta complex; cell-free CFP-Ran/YFP-importin-beta FRET ratio; inhibition, % (test concentration not listed); actives 1.1% (n = 300,000);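 active = most replicates above 15%; inconclusive = exactly half above 15%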;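 also: 0% = DMSO wells and 100% = Ran loaded with GDP instead of GTP; wells of about 40 µL received 100 nL stock; the first replicate is given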
HNF4A DNA FP: change in binding of human HNF4A to DNA, primary screen, biochemical, fluorescence polarization, FITC-DNA | Hepatocyte nuclear factor 4-alpha (Homo sapiens), P41235 | 1 h | activity change, % at 10 µM | actives 0.3% (n = 360,000); in the data active = activity change above about 30%, passing the limit was not always enough;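 also: controls were the assay level and a saturating level of protein; the project sought stronger binding though the title names inhibitors; some compounds called inactive have numbers as strong as hits; positive values seem to mean higher polarization but the record does not say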
Target sequence (P41235 whole entry, looked up): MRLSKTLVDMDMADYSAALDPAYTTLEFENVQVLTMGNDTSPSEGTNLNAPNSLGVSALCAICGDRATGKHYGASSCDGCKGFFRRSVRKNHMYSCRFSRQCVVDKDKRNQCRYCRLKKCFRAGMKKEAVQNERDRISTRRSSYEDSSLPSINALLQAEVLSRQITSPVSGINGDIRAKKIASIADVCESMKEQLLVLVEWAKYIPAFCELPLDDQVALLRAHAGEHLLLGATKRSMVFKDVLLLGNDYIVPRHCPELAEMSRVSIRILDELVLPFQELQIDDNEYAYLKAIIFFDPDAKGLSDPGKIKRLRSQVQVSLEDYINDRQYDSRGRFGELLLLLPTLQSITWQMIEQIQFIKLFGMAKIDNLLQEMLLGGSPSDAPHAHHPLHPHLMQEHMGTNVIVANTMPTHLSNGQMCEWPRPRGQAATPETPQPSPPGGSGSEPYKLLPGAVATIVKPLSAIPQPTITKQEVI
MLL AF4-AF9 inh: inhibitors of AF4 peptide binding to AF9, primary screen, biochemical, AlphaScreen, biotin-AF4 peptide, FLAG-AF9, single point; Protein AF-9 (Homo sapiens), P42568; AID 651704, 2012; inhibition, % at 10 µM; actives 0.47% (n = 350,000);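 active = every replicate reaching a set inhibition limit, whatever the replicate mean, cut at about 25% in these data; inconclusive = mean inhibition reaches that limit but some replicates miss it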;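 also: 0% = plate neutral control median and 100% = total signal loss; the record names both 10 and 1 µM as test concentration; the first replicate is given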
UCH37 DUB inh: inhibitors of human UCH37 deubiquitinase, primary screen, biochemical, Ub-AMC cleavage, fluorescence | Ubiquitin carboxyl-terminal hydrolase isozyme L5 (Homo sapiens), Q9Y5K5 | purified proteasome/UCH37 | inhibition, % (no concentration beside the values) | actives 0.33% (n = 330,000);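 active = mean of two replicates above 20%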;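 also: 0% = compound-free wells with enzyme and 100% = wells lacking proteasome; stock transfer was 100 nL into about 20 µL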
Target sequence (Q9Y5K5 whole entry, looked up): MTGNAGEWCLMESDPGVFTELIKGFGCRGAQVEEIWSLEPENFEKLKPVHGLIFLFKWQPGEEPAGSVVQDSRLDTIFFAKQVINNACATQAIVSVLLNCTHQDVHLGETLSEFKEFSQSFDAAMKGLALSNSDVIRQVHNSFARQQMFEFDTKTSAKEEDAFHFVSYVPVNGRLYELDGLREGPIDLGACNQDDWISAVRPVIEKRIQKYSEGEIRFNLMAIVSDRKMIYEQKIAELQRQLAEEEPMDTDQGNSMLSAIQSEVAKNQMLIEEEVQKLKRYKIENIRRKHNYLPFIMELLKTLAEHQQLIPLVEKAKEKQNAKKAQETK
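Material: Human UCH37 enzyme supplied as purified proteasome complex | Schedule: 30 min compound-proteasome preincubation then 25 min substrate reaction, room temperature | Detection: AMC fluorescence from Ub-AMC cleavage, excitation 355 nm, emission 460 nm | Benchmarks: Wells without proteasome as full block, compound-free enzyme plus substrate as uninhibited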
FGF22 binding: binders of human FGF22 protein, primary screen, FGF22 synaptogenesis inhibitor project, biophysical, thermal shift, single point; Fibroblast growth factor 22 (Homo sapiens), Q9HCT0; recombinant FGF22 thermal shift, SYPRO orange fluorescence; percent of sucrose octasulfate shift, DMSO zero; calls only at 9.99 µM; actives 1.5% (n = 340,000); AID 651658, 2012;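 active = melting point raised past a set limit in the mean and every replicate; inconclusive = no clear call; three in four hits are not shown here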
Target sequence (Q9HCT0 whole entry, looked up): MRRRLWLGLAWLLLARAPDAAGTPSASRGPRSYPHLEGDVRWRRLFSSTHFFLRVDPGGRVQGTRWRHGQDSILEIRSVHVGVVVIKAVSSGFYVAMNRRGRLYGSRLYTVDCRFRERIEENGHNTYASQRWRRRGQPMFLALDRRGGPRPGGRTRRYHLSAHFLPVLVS
Ecoli growth: E. coli growth inhibition, primary screen, OD600. Escherichia coli growth, 23 h; hits give low values. OD600 absorbance (no concentration beside the values). actives 0.21% (n = 330,000);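 active = OD600 absorbance below the run mean of sample wells minus 3.6 SD, in any replicate, cut at about 0.56 in these data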;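 also: stock transfer was 300 nL into about 60 µL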
Vif TR-FRET: inhibitors of Vif binding to APOBEC3G peptide, primary screen, biochemical, TR-FRET, GST-Vif 1-94, biotin-A3G peptide, dose response retest (AID 1117319); Virion infectivity factor (Human immunodeficiency virus type 1 group M subtype B (isolate …; TR-FRET GST-Vif / biotin-A3G peptide binding; higher % means a stronger effect; test concentration not given here; strong numbers were not always called active; inhibition, %, or IC50 in µM where a hit was titrated; actives 0.57% (n = 260,000);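 active = above the screen mean plus three standard deviations and confirmed in dose response; inconclusive = results disagree or hit not tested in dose response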;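 also: Vif residues 1-94 fused to GST binding biotinylated APOBEC3G peptide 110-148; 0% = full assay without inhibitor and 100% = GST in place of GST-Vif; retest series ran down from 100 µM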
Active calls of the source: *; i = inactive; ? = inconclusive; . = not tested or not shown.

SMILES	RanGTP-Impb inh	HNF4A DNA FP	MLL AF4-AF9 inh	UCH37 DUB inh	FGF22 binding	Ecoli growth	Vif TR-FRET
Cn1c(CNC(=O)Cc2ccc3c(c2)OCO3)nnc1SCc1ccccc1	-0.3	1.7	.	1.8	.	0.73	10%
COc1cccc2[nH]c3c(N4CCCCC4)ncnc3c12	5.5	0.3	.	-78	.	0.71	2%
CC(C)C(=O)NC(c1ccccc1Cl)c1c(O)ccc2ccccc12 (stereo unspecified)	-4.6	0.2	-81	-1.8	i	0.65	8%
O=C(O)c1cc(-c2ccc3ccccc3n2)nc2ccccc12	-1.7	3.3	-2.0	3.8	i	0.7	-3%
CC(C)c1cccc(C(C)C)c1OC(=O)[C@H]1OC(C(C)(C)C)=C[C@@H]1c1ccccc1	.	-3.2	1.5	5.1	i	.	.
Cc1[nH]c(C)c(S(=O)(=O)N2CCCCC2)c1C(=O)N1CCCC1	1.9	-3.8	2.4	5.7	i	0.71	.
Cc1cc(-c2ccc(C(C)C)c(S(=O)(=O)N3CCOc4ccccc43)c2)on1	-4.1	-0.3	-1.6	0.6	i	0.7	.
Cc1cc(C)c(S(=O)(=O)Nc2ccc(O)c(Sc3ncn[nH]3)c2)cc1C	-2.6	4.2	-2.0	5.8	i	0.78	11%
ONC(=Nc1ccc(Cl)cc1)c1ccc(Cl)cc1	2.8	-0.1	.	1.1	.	0.6	-1%
O=C(OCC(=O)N1CCc2ccccc2C1)c1cccc([N+](=O)[O-])c1	6.8	-0.9	-1.1	.	i	.	32%
CCOC(=O)C1(Cc2ccccc2)C(=O)N(CCCN(C)C)c2ccccc21 (stereo unspecified)	1.5	0.7	-2.1	3.7	i	0.64	.
Cc1ccc(S(=O)(=O)N(C)C)cc1NC(=O)c1c(-c2c(F)cccc2Cl)noc1C	7.8	0.8	-3.2	4.4	i	0.65	-2%
CC(=O)Nc1ccc(Nc2nnc(-c3ccc(C)c(S(=O)(=O)NCCO)c3)c3ccccc23)cc1	-0.7	0.0	0.7	8.6	i	0.65	.
Cc1cc(C)nc(N/N=C/C2=C(O)CC(c3ccc(F)cc3)CC2=O)n1 (stereo unspecified)	3.6	3.4	-2.2	2.0	i	0.65	.
CN1OC[C@@H]2CN(C(=O)CCc3ccccc3)[C@H](c3ccccc3Br)C[C@@H]21	.	0.6	12	.	i	.	.
CCOc1ccc(CN(C)C(=O)CCN2C(=O)c3ccccc3C2=O)cc1OC	0.4	1.0	1.4	5.0	i	0.68	.
Cc1cccc(N(CC(=O)NC(C)C)C(=O)c2ccc(N3CCCC3)nc2)c1	-1.2	1.4	0.0	3.5	.	0.69	-4%
CC[C@@H]1C(c2ccc(F)cc2)=NN(c2ccccc2)[C@H]1C(=O)N1CCOC1=O	.	1.4	-2.9	-21	i	0.73	-3%
CC(=O)Nc1ccc(OCCOc2ccc(/C=C3\C(=N)N4N=C(C(C)C)SC4=NC3=O)cc2)cc1	-3.6	-3.4	-1.8	5.5	i	0.69	.
O=C(CCCC(=O)N(CC(=O)NC1CCCCC1)Cc1ccccc1)Nc1ccccn1	-1.2	1.4	.	7.8	.	0.71	-4%
CCNc1nc(C)c(CN(C(C)=O)c2ccccc2)nc1C#N	4.4	4.8	.	i	.	0.7	4%
Cc1c(Cl)cccc1NC(=O)Cn1nnc(C(=O)NCc2cccs2)c1N	5.2	2.4	.	2.3	.	0.74	-13%
COc1cc(/C=N/NC(=O)COc2ccc(-n3cnnn3)cc2)ccc1OCC(N)=O	6.1	4.8	-1.7	.	i	.	1%
CCOC(=O)Cc1csc(SCC(=O)Nc2cc(C)ccc2OC)n1	0.9	0.3	-0.3	1.4	i	0.7	8%
COc1ccc(-c2ccc([C@H]3[C@@H]4C=CCC[C@@]4(C)C(=O)N3Cc3ccccc3)c(F)c2)cc1OC	-0.7	1.2	.	1.3	i	.	.

Record cards, from the list above. Order of values: RanGTP-Impb inh, HNF4A DNA FP, MLL AF4-AF9 inh, UCH37 DUB inh, FGF22 binding, Ecoli growth, Vif TR-FRET
Cc1ccc(S(=O)(=O)N(C)C)cc1NC(=O)c1c(-c2c(F)cccc2Cl)noc1C in the list: 7.8, 0.8, -3.2, 4.4, i, 0.65, -2%
Cc1c(Cl)cccc1NC(=O)Cn1nnc(C(=O)NCc2cccs2)c1N in the list: 5.2, 2.4, ., 2.3, ., 0.74, -13%

The main list resumes, starting 3 compounds before the break.
SMILES	RanGTP-Impb inh	HNF4A DNA FP	MLL AF4-AF9 inh	UCH37 DUB inh	FGF22 binding	Ecoli growth	Vif TR-FRET
COc1cc(/C=N/NC(=O)COc2ccc(-n3cnnn3)cc2)ccc1OCC(N)=O	6.1	4.8	-1.7	.	i	.	1%
CCOC(=O)Cc1csc(SCC(=O)Nc2cc(C)ccc2OC)n1	0.9	0.3	-0.3	1.4	i	0.7	8%
COc1ccc(-c2ccc([C@H]3[C@@H]4C=CCC[C@@]4(C)C(=O)N3Cc3ccccc3)c(F)c2)cc1OC	-0.7	1.2	.	1.3	i	.	.
COc1ccc(N2CCN(C(=O)CCCn3c(=S)[nH]c4cc5c(cc4c3=O)OCO5)CC2)cc1	1.2	0.9	.	-0.6	.	0.72	3%
CCCNC(=O)C(Cc1cccc(C#N)c1)NC(=O)c1ccc(C#N)cc1 (stereo unspecified)	.	-0.1	-1.4	0.1	i	0.7	.
O=C(Nc1ccc(Cl)cc1)C1CCCN1C(=O)NCc1ccccc1 (stereo unspecified)	2.9	0.6	4.0	-0.6	i	0.59	.
COc1cc(CN2CCN(c3cccc(Cl)c3)CC2)cc(OC)c1OC	-0.8	-0.3	.	1.7	.	0.67	13%
Cc1cccc(C(=O)N2CCN(c3ncnc4c3cnn4-c3ccccc3)CC2)c1	-1.3	-0.9	.	0.8	.	0.78	?
c1ccc2nc(N3CCOCC3)c(N3CCOCC3)nc2c1	0.9	0.8	.	-2.0	.	0.75	29%
CC1(C)OC(=O)C(=NNc2ccc(O)cc2)C(=O)O1	.	-0.4	.	6.3	.	0.69	5%
O=C(c1cccnc1)N1CCC(Oc2ccc(C(=O)N3CCCCO3)cc2)CC1	-2.5	0.4	0.0	1.5	i	0.72	.
CCC(CC)C1C(C#N)=C(N)SC(N)=C1C#N	-0.1	7.7	.	5.0	.	0.7	-5%
CCN(CC)C(=O)C1=C(C)N(CCCOC)C(=O)C(CC(=O)NCc2cccs2)C1 (stereo unspecified)	.	-3.8	2.5	.	i	.	-7%
COCCN1CC(CNC(=O)c2cc(COc3ccccc3SC)on2)CC1=O (stereo unspecified)	5.5	2.1	-0.4	2.7	i	0.74	.
Cc1ccc(S(=O)(=O)N2CCOCC2)cc1C(=O)Nc1ccc2c(c1)OCCO2	.	-3.8	1.9	2.9	i	0.67	0%
CN1CCN(C(=O)CCc2nnc3ccc(N4CCC5(CC4)OCCO5)nn23)CC1	-1.3	1.6	-1.5	-1.9	i	0.72	.
CCNC(=O)C1(C)CCCN1C(=O)c1ccc(-c2ccccc2)cc1 (stereo unspecified)	.	-3.7	-4.4	.	i	.	.
O=C(O)CSc1nccn1-c1cccc(Cl)c1	?	-0.4	.	4.1	.	0.76	2%
O=C(COc1ccc2ccccc2c1CN1CCOCC1)N1CCc2ccccc21	-2.4	8.7	.	2.7	.	0.66	11%
Cc1cc(C(F)(F)F)nc(SCC(=O)Nc2cc(C)on2)n1	-1.9	0.8	.	.	.	.	29%
COc1ccc2c(c1)cc1c(=O)n(CC(=O)NCCCN3CCOCC3)nc(C)n12	2.8	0.5	0.6	-38	i	0.71	.
COC(=O)c1ccc(NC(=O)CNC(=O)c2sc3ccccc3c2Cl)cc1	.	11	0.6	0.3	i	0.62	.
O=C(Cc1ccc(S(=O)(=O)N2CCOCC2)s1)NC1CCCCC1	.	2.9	1.3	-0.2	i	0.64	.
COc1ccc(/C=C/C(=O)NCc2cn(C)nc2C)cc1COc1ccc(Cl)cc1Br	2.0	-2.8	7.2	-189	i	0.72	-2%
CCCCN(C(=S)Nc1ccccc1)C1CCS(=O)(=O)C1 (stereo unspecified)	-3.0	1.2	.	3.1	.	0.73	2%
CCOc1ccc(N(CC(=O)Nc2ccc(C)c(C)c2)S(=O)(=O)c2c(C)noc2C)cc1	?	3.9	-7.1	3.2	i	0.79	?
Cc1ccc(NC(=O)c2ccc3c(c2)OCCO3)cc1S(=O)(=O)Nc1cccc(Cl)c1	2.0	-2.2	-2.3	0.5	i	0.66	27%
CC(=O)N(C)c1nnc(-c2cnccn2)s1	3.2	-0.6	.	-4.7	.	0.75	-13%

Next section
SMILES	RanGTP-Impb inh	HNF4A DNA FP	MLL AF4-AF9 inh	UCH37 DUB inh	FGF22 binding	Ecoli growth	Vif TR-FRET
N#CCCN(CCC#N)S(=O)(=O)c1ccc(C(=O)Nc2nnc(C3=COCCO3)o2)cc1	-2.8	-1.5	0.2	4.7	i	0.73	2%
Cc1ccc(C(c2nc3ccccc3[nH]2)n2c(-c3ccccc3)nc3ccccc32)cc1 (stereo unspecified)	.	3.0	0.9	.	i	.	.
COc1ccc(C(=O)c2cn[nH]c2-c2ccc(C)cc2O)cc1	-3.0	-2.1	0.2	1.9	i	0.67	-6%
ClC(Cl)c1nnc(-c2ccccc2)c(-c2c[nH]c3ccccc23)n1	?	-2.1	.	4.1	.	0.71	?
CCCCN(C)C(=O)CCCCn1c(=O)[nH]c2cc(OCC)c(OCC)cc2c1=O	2.5	-0.4	.	-17	.	0.67	?
COc1ccc(OC)c(S(=O)(=O)NCC(c2ccco2)S(=O)(=O)c2ccccc2)c1 (stereo unspecified)	1.8	-1.0	0.9	5.7	i	0.72	.
COc1ccc(C(c2c(NC(=O)c3ccco3)sc(C)c2C)N2CCOCC2)cc1 (stereo unspecified)	.	-2.9	5.0	-16	i	0.67	6%
COc1cccc(CC(NC(C)=O)C(=O)NC2CCN(c3nnnn3-c3ccccc3)CC2)c1OC (stereo unspecified)	7.6	-2.3	-1.8	3.3	i	0.69	-5%
CN1OC(COC(=O)c2ccccc2)CC1c1ccccc1 (stereo unspecified)	3.0	3.5	.	4.1	.	0.65	-4%
COC(=O)c1c(NC(=O)c2nc3ccccc3s2)sc2c1CCN(C(C)=O)C2	.	2.0	.	-5.0	.	0.79	22%
COc1ccc(CC(=O)NC(C)c2nnc(SCC(=O)Nc3ccccc3F)n2C)cc1 (stereo unspecified)	-3.7	-2.5	-1.7	1.4	i	0.71	.
O=S(=O)(Nc1c(O)ccc2ccccc12)c1ccccc1	?	11	0.2	1.7	i	0.6	.
N=C(N)SCP(=O)(c1ccccc1)c1ccccc1	3.0	-2.1	-8.2	5.1	i	0.71	-2%
CCOc1ccc(-n2c(C)nc3cc(C(=O)NCCN4CCOCC4)ccc32)cc1	-0.6	0.5	.	1.8	.	0.75	5%
O=C(CCN1C(=O)c2ccncc2C1=O)Nc1cc(F)ccc1F	-0.7	-0.6	0.3	3.2	i	0.72	-1%
O=C(Nc1cccn(Cc2c(Cl)cccc2Cl)c1=O)C1CC1	-5.9	-2.3	1.0	1.1	i	0.69	5%
COC(=O)/C(=C\c1c(OC)cc(OC)cc1OC)C(=O)c1ccc2c(c1)OCO2	-2.7	-4.4	5.0	2.9	i	.	.
CN(C)CCCN(C(=O)c1ccc(S(=O)(=O)N2CCCc3ccccc32)cc1)c1nc2ccc(F)cc2s1	-0.9	2.7	14	.	i	.	.
COc1ccc(N2CCN(C(=O)c3ccc4nc(N5CCCCC5)sc4c3)CC2)cc1	-5.1	1.3	7.3	6.1	i	0.72	6%

An excerpt, so the mix of outcomes need not match the whole.
